Bioassay records: PubChem BioAssay, National Center for Advancing Translational Sciences (NCATS)
Sfp PPTase inh: blocks B. subtilis Sfp PPTase activity; Q9F4F7; Biochemical Sfp PPTase activity, qHTS; Potency, µM, without a hit: max response, negative = inhibition, most hits filed as inhibitors; 310,000 compounds, 3.5% hits; AID 1490; active = well fitted inhibition curve with a large enough effect; inconclusive = small, poorly fitted or top-dose-only effect, or another doubt; inactive = no such curve, though single readings can be large or run the other way;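 note: the enzyme is Sfp with the accession as filed and its product quenches rhodamine fluorescence; potency is the fitted concentration of half-maximal effect; 0% = enzyme reaction without inhibitor and -100% = no enzyme wells; top concentration of the series not given in the record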
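Step 1, compound plus 15 nM Sfp-PPTase, 15 min, room temperature. Step 2, add rhodamine-CoA (5 uM) and BHQ-2-YbbR (12.5 uM). Step 3, read 525/598 nm fluorescence at 0 and 30 min.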
gsp antagonist: gsp mutant antagonism; gsp-mutant cells, cAMP HTRF, 30 min; control for the full effect not named in the record; Potency, µM (highest dose often 76.9 µM), inactives show at the highest dose activity change, negative = inhibition, hits mostly inhibitors; 340,000 compounds, 0.4% hits; active = falling curve of any shape with a large fitted effect; inconclusive = falling curve, mostly with a smaller effect; inactive = flat or rising curve; cell line not stated here;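 note: intracellular cAMP measured with PDE inhibitor Ro 20-1724 present during compound exposure; potency is the fitted concentration of half-maximal effect; % is set by controls: 0 for no effect and ±100 for the full control effect; nearly all actives have a fitted effect of over 65% in size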
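HTRF cAMP read-out (cAMP-d2 plus anti-cAMP antibody-K in lysis buffer, 30 min RT). Before lysis, cells are exposed to compounds with […] for 30 min at 37C in DPBS containing Ca/Mg, BSA and Tween 20.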
ClpP mod: qHTS Assay for Activators of ClpP; ATP-dependent Clp protease proteolytic subunit (Bacillus subtilis (strain 168)), P80244; purified B. subtilis ClpP, FRET peptide cleavage, 20 min; 340,000 compounds, 1.9% hits; Potency, µM (doses to about 57.5 µM), inactives show top-dose activity change, negative = active; active = well fitted falling curve with a large enough effect; inconclusive = small, poorly fitted or top-dose-only effect; inactive = no such curve, though single readings can be large or run the other way; note: potency is the fitted concentration of half-maximal effect; the source files actives as falling curves though it sought activators and does not explain the sign; nearly all actives have a fitted effect of over 65% in size; many hits overshoot -100%
Target sequence (P80244 whole entry, looked up): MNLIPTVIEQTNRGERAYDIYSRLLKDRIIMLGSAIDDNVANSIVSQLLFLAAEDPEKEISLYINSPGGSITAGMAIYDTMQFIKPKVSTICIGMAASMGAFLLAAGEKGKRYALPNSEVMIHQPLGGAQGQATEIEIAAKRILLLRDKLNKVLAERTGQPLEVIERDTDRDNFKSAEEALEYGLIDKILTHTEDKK
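FRET quenching reversal measured ClpP activation: 10 microg/mL B. subtilis ClpP at pH 8 with the FRET-FV decapeptide, read at 430 nm after 320 nm excitation. The 20-min minus 0-min signal was scaled between DMSO/no-enzyme wells and ADEP (5.8 microM final).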
TRPML1 inh: inhibitors of human TRPML1 channel. 390,000 compounds, 0.02% hits. Q9GZU1. activity change, negative = inhibition, % (no concentration beside the values). TRPML1-inducible cells, Ca2+ dye fluorescence, FDSS; hits give low values; inhibition of EC80 agonist-evoked calcium signal. AID 624415; in the data active means activity change below about -50%; inconclusive means about -30% to -50%; inactive means above about -30%;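 note: stimulus is agonist 54-4 at its EC80 concentration; % is set by controls: 0 for no effect and ±100 for the full control effect; compound concentration not given in the record; the text of the record puts the active cut at -80%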
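Tet-induced TRPML1-DL cells loaded with Ca8 no-wash calcium dye were read kinetically on FDSS. Compound addition was followed by EC80 agonist 54-4 (4 uM final); inhibition was read over 110 s.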
gsp ag: agonists of gsp mutant (McCune-Albright syndrome); gsp mutant cells, cAMP HTRF, 30 min; control for the full effect not named in the record; Potency, µM (doses to about 76.9 µM), inactives show top-dose activation (cAMP increase), hits mostly activators; AID 624287; 340,000 compounds, 0.13% hits; active = well fitted activation curve with a large enough effect; inconclusive = small, poorly fitted or top-dose-only effect, or another doubt; inactive = no such curve, though single readings can be large or run the other way; cell line not stated here;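 note: phosphodiesterase inhibitor Ro 20-1724 added with compounds to block cAMP breakdown; potency is the fitted concentration of half-maximal effect; nearly all actives have a fitted effect of over 60% in size; about a fifth of the inactives were tested at one dose only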
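Cells in DMEM/10% FBS with G418 were pretreated with compounds in DMSO plus […] (300 uM stock) for 30 min at 37C. cAMP was measured by HTRF (cAMP-d2 plus anti-cAMP antibody-K) after 30 min at room temperature.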
Menin MLL FP FL: displaces fluorescein MLL peptide from human menin; Fluorescence polarization, fluorescein-MLL peptide displacement from menin; FP activity change, % at 61.4 µM; 290,000 tested, under 10 active; inconclusive = falling polarisation curve, or a change in total fluorescence; inactive = total fluorescence flat and polarisation flat or rising; no compound was filed as active; the % refers to the polarisation; negative = inhibition;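 note: % of control where 0% means no effect; inhibitors lower the polarisation; unlabelled MLL peptide was the positive control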
TRPV1 PAM: enhances activation of the human vanilloid receptor TRPV1; TRPV1-expressing cells, Fluo-8 calcium influx, capsaicin EC20 potentiation; host cell line not named in the record; control for the full effect not named in the record; 320,000 compounds, 0.02% hits; Q8NER1; potentiation, % at 8.33 µM; active means potentiation above 80%; inconclusive means 30% to 80%; inactive means below 30%; note: 0% is about no effect
Target sequence (Q8NER1 whole entry, looked up): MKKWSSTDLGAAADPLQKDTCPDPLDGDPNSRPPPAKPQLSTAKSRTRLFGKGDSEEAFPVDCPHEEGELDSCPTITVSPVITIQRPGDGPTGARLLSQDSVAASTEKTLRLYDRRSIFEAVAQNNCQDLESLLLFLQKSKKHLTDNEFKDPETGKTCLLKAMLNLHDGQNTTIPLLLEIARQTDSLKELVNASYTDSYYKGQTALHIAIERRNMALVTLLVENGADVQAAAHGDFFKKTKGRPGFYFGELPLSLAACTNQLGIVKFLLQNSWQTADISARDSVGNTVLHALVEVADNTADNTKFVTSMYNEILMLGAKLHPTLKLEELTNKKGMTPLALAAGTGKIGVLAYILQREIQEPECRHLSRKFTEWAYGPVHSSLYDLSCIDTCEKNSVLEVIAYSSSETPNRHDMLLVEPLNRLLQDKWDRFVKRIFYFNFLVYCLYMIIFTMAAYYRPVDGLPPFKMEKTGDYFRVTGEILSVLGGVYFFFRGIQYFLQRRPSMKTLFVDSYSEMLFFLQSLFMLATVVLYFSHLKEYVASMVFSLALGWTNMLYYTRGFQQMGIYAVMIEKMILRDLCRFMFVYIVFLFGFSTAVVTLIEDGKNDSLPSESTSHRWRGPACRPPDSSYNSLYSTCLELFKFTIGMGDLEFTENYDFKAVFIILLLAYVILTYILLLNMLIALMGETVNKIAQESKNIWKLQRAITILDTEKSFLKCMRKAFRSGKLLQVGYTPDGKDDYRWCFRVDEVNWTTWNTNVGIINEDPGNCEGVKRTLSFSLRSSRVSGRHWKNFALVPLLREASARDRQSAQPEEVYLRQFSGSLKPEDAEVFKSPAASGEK
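Fluo-8 calcium influx in TRPV1-expressing cells, kinetic read (ex 480/em 520 nm). Compound added and read 3 min for agonist activity, followed by capsaicin at EC20 final and 2 min further read for enhancement.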
* = called active by the depositor; ? = inconclusive; / = not tested or not shown; [ ] = remark or other dose.

Order of results – Sfp PPTase inh	gsp antagonist	ClpP mod	TRPML1 inh	gsp ag	Menin MLL FP FL	TRPV1 PAM
1	O=C(NCc1cccnc1)c1ccc(S(=O)(=O)N2CCOCC2)cc1
  3.7%	-0.7%	-0.1%	-2.9	-60.6%[inhibitor]	-2.1	6.0
2	COc1ccc(/C(C)=N/NC(=O)CNC(=O)/C=C\c2ccco2)cc1
  0.3%	16.5%	-2.8%	21.0	?	-1.6	7.7
3	Cc1ccc(NC(=O)c2ncn(CCCN(C)CCc3ccccn3)n2)cc1C
  /	-0.3%	0.5%	-4.4	/	/	/
4	C/C(=C\c1ccccc1)C(=O)Nc1cc(C)on1
  21.6%	-11.5%	1.4%	2.9	0.0%	-1.3	-2.2
5	COc1ccc(-c2cc(C(F)(F)F)n3ncc(C(=O)N4CCc5ccccc5C4)c3n2)cc1
  -11.6%	/	/	40.6	8.4%[15.4 µM]	5.3	1.2
6	NCCCC[C@@H](C(=O)N1CCNCC1)n1cc(CN)nn1
  /	12.4%	-2.2%	-8.4	/	/	?
7	CC(C)(C)c1csc(N(CCC#N)CCC#N)n1
  12.2%	1.3%	-2.5%	-20.1	-73.2%[inhibitor]	17.1	-16.8
8	CCC(C)NC(=O)CC1Oc2ccc(Cl)cc2NC1=O (stereo not drawn)
  -16.0%	6.7%	-7.8%	-14.6	-28.9%	-0.5	4.9
9	CCC(=O)NC(=S)Nc1cc(C(=O)O)ccc1OC
  24.5%	6.1%	/	-15.0	13.4%	1.1	-23.6
10	CCCOc1ccc(-c2nc(N3CCN(CC)CC3)c3ccccc3n2)cc1
  -24.0%	11.0%	?	55.8	6.4%	-11.3	1.6
11	CCCCCC(=O)NC(=S)Nc1ccc(Br)cc1C
  25.1%	8.3%	-0.9%	6.2	-3.3%	3.8	12.9
12	O=c1ccc2ccc(O[C@@H]3O[C@H](CO)[C@@H](O)[C@H](O)[C@H]3O)c(O)c2o1
  17.8%	-0.9%	1.0%	5.6	/	-1.9	-1.2
13	COc1ccc(-n2c(Cc3cccn3C)nnc2SCC(=O)Nc2cccc(NC(C)=O)c2)cc1
  -8.5%	-11.2%	-1.8%	-7.0	-19.1%	-1.1	-1.5
14	C#CCOCCOCCOCCNc1nc(N2CCOCC2)nc(N2CCN(C(=O)[C@H]([C@@H](C)CC)n3cc(CCCN=C(N)N)nn3)CC2)n1
  -5.1%	0.1%	1.0%	-16.1	-3.2%	0.3	8.8
15	CC1CCCCC1Nc1ncnc2sccc12 (stereo not drawn)
  2.0%	-0.7%	/	-13.8	7.0%	0.2	-8.7
16	CC(=O)c1cccc(NC(=O)CNC(=O)Cc2ccccc2)c1
  13.3%	0.1%	/	-7.7	18.1%[15.4 µM]	0.5	19.2
17	COC(=O)c1cccc(NC(=O)C2COc3ccccc3O2)c1 (stereo not drawn)
  10.6%	4.9%	3.9%	3.8	-36.9%	1.7	?
18	COc1ccc(S(=O)(=O)N(C)C[C@H]2Oc3ccc(NC(=O)CCC(F)(F)F)cc3C(=O)N([C@H](C)CO)C[C@@H]2C)cc1
  /	-10.1%	0.3%	-10.1	/	/	/
19	COc1ccc(Cl)cc1NC(=O)c1cc(-c2ccccc2)on1
  15.8%	7.8%	3.7%	/	-14.4%	1.0	21.3
20	NC(=O)C(c1ccc(Sc2ccccc2)nn1)c1ccc(Cl)cc1Cl (stereo not drawn)
  -6.0%	2.8%	-0.7%	-3.2	-29.2%	0.7	4.1
21	COc1nc(=O)n(C2OC(CO)C(O)C2O)cc1C (stereo not drawn)
  /	5.8%	35.5µM*	19.6	2.3%	/	/
22	Cc1cccc(-c2nc(CC(=O)Nc3cccc(S(=O)(=O)NC4=NCCC4)c3)cs2)c1
  /	-12.2%	-11.2%	11.3	29.9%	/	?
23	CCN1C(=O)/C(=C\c2ccco2)C(C(=O)OC)=C1C
  6.1%	-4.9%	0.0%	-1.7	?	2.7	-1.0
24	O=C(CN1CCCCC1)Nc1ccc(C(F)(F)F)cc1Cl
  -16.1%	3.4%	/	21.1	-8.0%[15.4 µM]	-0.6	-0.4
25	Cc1cc(Br)ccc1OCC(=O)N(Cc1nc(-c2ccccc2)no1)C(C)C
  15.0%	?	-0.8%	8.9	-42.1%	-1.1	4.0
26	N#C/C(=C\c1cn(CCOc2ccccc2F)c2ccccc12)C(=O)NCc1cccs1
  22.8%	-16.2%	-24.1%	-1.9	-49.0%[inhibitor]	-1.5	12.2
27	O=C1CCC(=O)N1OCCOc1ccc(Cl)c2ccccc12
  23.0%	-3.0%	/	2.7	?	-0.6	-2.8
28	Cc1ccc(C(=O)N/C(=C/c2ccco2)C(=O)N2CCOCC2)cc1
  17.3%	12.6%	/	-5.4	-4.9%[15.4 µM]	1.7	-1.1
29	Cc1cc(C)c(C)c(S(=O)(=O)N2CCCN(C)CC2)c1C
  4.7%	7.6%	/	24.5	-6.0%[15.4 µM]	1.0	-2.6
30	CC(Cc1ccccc1)N/C=C1\CC(=O)NC1=O (stereo not drawn)
  7.3%	-20.3%	6.7%	9.7	-12.7%	1.3	5.0

[31] CCN(CC)CC(C)(C)C(=O)/C=C/c1ccc(/C=C/C(=O)C(C)(C)CN(CC)CC)cc1
[32] CCCN(CCC)CC(=O)NCC1(c2ccccc2)CCOCC1
[33] CC(C)(O)c1[nH]c2ccc(C(F)(F)F)cc2c1C(C)(C)O
[34] Cc1ccc(S(=O)(=O)Cn2nnnc2C(C(C)C)N2CCSCC2)cc1 (stereo not drawn)
[35] COc1ccccc1C(=O)NC(CCSC)C(=O)NNC(=O)c1csc(N2CCOCC2)n1 (stereo not drawn)
[36] CCOc1ccccc1C1C(C#N)=C(N)Oc2cc(C)n(C)c(=O)c21 (stereo not drawn)
[37] CSc1ncc(CN2CCc3c([nH]c4ccccc34)C2c2cccc(C)n2)cn1 (stereo not drawn)
[38] COc1ccc2c(c1)NC(c1ccc(N(C)C)cc1)c1cccn1-2 (stereo not drawn)
Screen / compound no.,31,32,33,34,35,36,37,38
Sfp PPTase inh,/,20.5%,6.7%,8.9%,15.4%,6.1%,14.6%,?
gsp antagonist,13.5%,3.7%,1.8%,-15.0%,2.8%,13.8%,-20.4%,-1.7%
ClpP mod,-1.0%,-2.3%,-11.5%,-0.6%,-2.8%,-0.9%,-0.3%,/
TRPML1 inh,-2.5,-0.7,11.5,1.3,9.3,7.8,-3.7,6.4
gsp ag,-1.7%,11.5%,/,-30.5%[inhibitor],17.5%,-8.2%,-40.2%,15.2%
Menin MLL FP FL,/,0.6,1.9,2.5,/,-1.3,2.9,?
TRPV1 PAM,/,-8.0,-16.1,-21.9,7.1,1.4,-8.4,/

Entries shown so far that contain a cyano group (three):
[7] CC(C)(C)c1csc(N(CCC#N)CCC#N)n1
[26] N#C/C(=C\c1cn(CCOc2ccccc2F)c2ccccc12)C(=O)NCc1cccs1
[36] CCOc1ccccc1C1C(C#N)=C(N)Oc2cc(C)n(C)c(=O)c21 (stereo not drawn)
Screen / compound no.,7,26,36
Sfp PPTase inh,12.2%,22.8%,6.1%
gsp antagonist,1.3%,-16.2%,13.8%
ClpP mod,-2.5%,-24.1%,-0.9%
TRPML1 inh,-20.1,-1.9,7.8
gsp ag,-73.2%[inhibitor],-49.0%[inhibitor],-8.2%
Menin MLL FP FL,17.1,-1.5,-1.3
TRPV1 PAM,-16.8,12.2,1.4

Quoted from above: entries 36 to 38
[36] CCOc1ccccc1C1C(C#N)=C(N)Oc2cc(C)n(C)c(=O)c21 (stereo not drawn)
[37] CSc1ncc(CN2CCc3c([nH]c4ccccc34)C2c2cccc(C)n2)cn1 (stereo not drawn)
[38] COc1ccc2c(c1)NC(c1ccc(N(C)C)cc1)c1cccn1-2 (stereo not drawn)
Screen / compound no.,36,37,38
Sfp PPTase inh,6.1%,14.6%,?
gsp antagonist,13.8%,-20.4%,-1.7%
ClpP mod,-0.9%,-0.3%,/
TRPML1 inh,7.8,-3.7,6.4
gsp ag,-8.2%,-40.2%,15.2%
Menin MLL FP FL,-1.3,2.9,?
TRPV1 PAM,1.4,-8.4,/

New compounds follow:
[39] Cc1cc(C)n(-c2nc(NCC(C)O)c3c4c(sc3n2)CCCC4)n1 (stereo not drawn)
[40] COc1ccc(CNC(=O)COC(=O)CCCOc2ccc(Cl)cc2Cl)cc1
[41] COc1ccc(Br)cc1CN(C)CC(O)COc1ccc(Br)cc1 (stereo not drawn)
[42] Cc1ccc(C(=O)N/N=C/c2cccc(OC(=O)/C=C/c3ccco3)c2)cn1
[43] Cc1cc(OCC(=O)N2CCC[C@@H]2C(=O)O)c2c(C)c(C)c(=O)oc2c1
[44] CCC(C)NC(=O)c1ccc(CN2CCc3ccccc3C2)cc1 (stereo not drawn)
[45] C/C(CC(=O)NCc1ccco1)=N\NC(=O)c1ccc([N+](=O)[O-])cc1Cl
[46] COCCN(CCOC)Cc1c(C)[nH]c2ccccc2c1=O
[47] CCOC(=O)C1=C(C)NC(=O)NC1c1ccc(Cl)cc1Cl (stereo not drawn)
[48] NS(=O)(=O)c1ccc(CNS(=O)(=O)c2ccc(Cl)nc2)cc1
Screen / compound no.,39,40,41,42,43,44,45,46,47,48
Sfp PPTase inh,-4.2%,1.5%,-5.8%,31.6µM*,16.0%,-5.2%,21.7%,-3.8%,-0.6%,10.3%
gsp antagonist,-6.3%,7.7%,-13.6%,-1.0%,-6.1%,5.1%,10.7%,2.9%,4.7%,13.0%
ClpP mod,31.6µM*,-2.1%,/,/,4.5%,0.0%,/,-2.0%,0.0%,/
TRPML1 inh,1.0,-1.0,-2.6,-4.7,/,3.8,-8.2,2.9,-12.2,-2.5
gsp ag,-1.3%,0.5%[15.4 µM],-8.6%[15.4 µM],2.0%[15.4 µM],/,-20.8%,10.9%,-3.3%,0.6%,6.0%
Menin MLL FP FL,-7.1,-0.2,-1.0,-1.7,0.2,-0.7,1.9,6.3,1.2,2.8
TRPV1 PAM,17.5,-1.9,18.5,0.9,-12.2,4.2,1.2,4.6,-3.9,5.8
